ALR inh – human ALR oxidase inhibition via reduced H2O2; purified ALR, DTT oxidation, H2O2 HRP-luminol luminescence; inhibition, % (no concentration beside the values); 290,000 tested, 3.8% active; AID 485317;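 active means mean and each replicate at 75% or more; inconclusive means only one of the two met; inactive means neither met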;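 further: stock transfer was 7.5 nL into about 7.5 µL; 0% = neutral wells and 100% = wells with inactivated enzyme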
Target sequence (P55789 whole entry, looked up): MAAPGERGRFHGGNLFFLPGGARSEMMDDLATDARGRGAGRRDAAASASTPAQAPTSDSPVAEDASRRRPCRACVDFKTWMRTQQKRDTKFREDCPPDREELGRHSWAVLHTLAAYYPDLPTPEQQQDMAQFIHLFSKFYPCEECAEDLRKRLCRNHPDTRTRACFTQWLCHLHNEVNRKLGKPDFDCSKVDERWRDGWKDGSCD
Beta apoptosis – blocks beta cell apoptosis | INS-1E cytokine-induced death, ATP luminescence, 48 h; percent of positive-control rescue, neutral wells zero | protection from apoptosis, % (no concentration beside the values) | 300,000 tested, 0.8% active;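 active means all replicates at 75% or more, or half of them and the mean; inconclusive means half reach 75% but not the mean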;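 further: 0% = cytokine-treated negative control wells and 100% = positive control rescue; higher means more ATP so stronger rescue from cytokine killing; wells of about 40 µL received 100 nL stock; the first replicate is given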
Calb FLC – C. albicans growth modulation with fluconazole; growth inhibition, % (test concentration not listed); C. albicans CaCi-2 (fluconazole-resistant clinical isolate) + fluconazole, Alamar Blue growth, 48 h; 300,000 tested, 0.57% active; AID 1979;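 active means most replicates above 75%; inconclusive means exactly half above 75%; inactive means most below 75%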;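 further: all wells also contain fluconazole at 8 µg/ml as a sub-toxic cotreatment; 0% = median of DMSO wells and 100% = median of geldanamycin control wells; wells of about 8 µL received 7.5 nL stock; the first replicate is given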
MLL AF4-AF9 inh – blocks AF4 peptide binding to human AF9; AlphaScreen, biotin-AF4 peptide binding to FLAG-AF9; 350,000 tested, 0.47% active; inhibition, % at 10 µM;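 active means every replicate reaching a set inhibition limit, whatever the replicate mean, cut at about 25% in these data; inconclusive means mean inhibition reaches that limit but some replicates miss it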;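 further: 0% = plate neutral control median and 100% = total signal loss; the record names both 10 and 1 µM as test concentration; the first replicate is given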
Target sequence (P42568 whole entry, looked up): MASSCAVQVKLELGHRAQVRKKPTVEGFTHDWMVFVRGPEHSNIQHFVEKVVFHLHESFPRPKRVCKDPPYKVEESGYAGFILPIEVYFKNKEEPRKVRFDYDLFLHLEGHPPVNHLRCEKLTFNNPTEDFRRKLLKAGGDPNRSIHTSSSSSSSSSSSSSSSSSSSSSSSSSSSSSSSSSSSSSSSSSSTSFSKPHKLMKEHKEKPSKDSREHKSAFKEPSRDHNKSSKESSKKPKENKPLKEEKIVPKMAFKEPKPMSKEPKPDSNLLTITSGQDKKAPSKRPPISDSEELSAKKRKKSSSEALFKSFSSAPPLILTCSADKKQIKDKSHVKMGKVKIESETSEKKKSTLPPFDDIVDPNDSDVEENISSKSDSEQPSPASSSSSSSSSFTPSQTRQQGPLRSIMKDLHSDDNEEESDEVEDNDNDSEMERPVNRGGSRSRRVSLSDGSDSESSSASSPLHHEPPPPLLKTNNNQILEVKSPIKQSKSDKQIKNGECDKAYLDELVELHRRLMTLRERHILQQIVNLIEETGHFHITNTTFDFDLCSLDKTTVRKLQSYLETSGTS
T cruzi repl – blocks replication of Trypanosoma cruzi; T. cruzi beta-gal in NIH3T3, luminescence, 90 h; inhibition, % (test concentration not listed); 300,000 tested, 1.4% active; AID 1885;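 active means mean inhibition across valid replicates above about 55%, limit read from the data; inconclusive means mean below that limit but half or more replicates reach it; inactive means mean below it, under half of replicates reach it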;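 further: signal also drops with host cell toxicity which is not excluded here; 0% = plate median of DMSO wells and 100% = zero luminescence signal; higher percent means less beta-gal luminescence so fewer parasites; stock transfer was 50 nL into about 50 µL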
RanGTP-Imp inh – inhibitors of RanGTP-importin-beta interaction, primary screen, biochemical, FRET, CFP-Ran, YFP-importin-beta, homogeneous. 300,000 tested, 1.1% active. cell-free CFP-Ran/YFP-importin-beta FRET ratio. inhibition, % (no concentration beside the values);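 active means most replicates above 15%; inconclusive means exactly half above 15%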;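 further: 0% = DMSO wells and 100% = Ran loaded with GDP instead of GTP; wells of about 40 µL received 100 nL stock; the first replicate is given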
FGF22 binding – shifts melting point of recombinant human FGF22; Q9HCT0; recombinant FGF22 thermal shift, SYPRO orange fluorescence; percent of sucrose octasulfate shift, DMSO zero; calls only at 9.99 µM; 340,000 tested, 1.5% active; AID 651658;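 active means melting point raised past a set limit in the mean and every replicate; inconclusive means no clear call; three in four hits are not shown here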
Target sequence (Q9HCT0 whole entry, looked up): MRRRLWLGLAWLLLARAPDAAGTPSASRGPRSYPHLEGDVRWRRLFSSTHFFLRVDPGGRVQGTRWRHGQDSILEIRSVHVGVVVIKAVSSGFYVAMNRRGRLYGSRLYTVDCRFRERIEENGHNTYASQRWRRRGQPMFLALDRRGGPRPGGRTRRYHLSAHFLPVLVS
Ecoli rRNA inh – inhibitors of bacterial rRNA selective over humanized ribosomes; E. coli WT GFP vs humanized-ribosome RFP mutants, fluorescence, 24 h; hits give low values; DMSO median 0, no signal -100; GFP signal change (wild-type ribosome), % (concentration not given with the values); 350,000 tested, 1.6% active;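 active means significant combined selectivity score with lowered wild-type GFP, culture density cut under 30%, mutant RFP and density less affected; inactive means any of these conditions unmet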; further: one replicate is shown; some compounds called inactive have numbers as strong as hits
Ecoli rRNA inh OD600 – second read-out of Ecoli rRNA inh, no call of its own (marks repeat the call); OD600 change, %; measured here: OD600 growth;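 optical density of the mix in the first replicate; 0 = DMSO median and -100 = no signal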
Ecoli rRNA inh RFP – recorded beside Ecoli rRNA inh, whose call it bears; RFP signal change, %; measured here: RFP humanized mutant strains;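 first replicate; 0 = DMSO median and -100 = no signal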
* marks the source's active call; other numbers are inactive results; i = inactive; ? = inconclusive; nt = no result given. The list is partial; the hit share may differ from the screen's.

SMILES | ALR inh | Beta apoptosis | Calb FLC | MLL AF4-AF9 inh | T cruzi repl | RanGTP-Imp inh | FGF22 binding | Ecoli rRNA inh | Ecoli rRNA inh OD600 | Ecoli rRNA inh RFP
O=S(=O)(c1ccc2ccccc2c1)N1CCOCC1 | nt | -11 | -1 | -4.8 | -19 | 0.1 | i | 4 | -4 | -2.0
Cc1cc(-c2csc(NC(=O)C3=COCCO3)n2)c(C)n1C | -2 | 4 | 3 | 0.5 | 3 | 4.3 | i | 12 | 14 | 1.8
Cc1cccc(NC(=O)CCCN=C2NS(=O)(=O)c3ccccc32)c1C | -1 | -2 | nt | 2.5 | nt | nt | i | 8 | 15 | -0.2
COc1ccc(NC(=O)c2nnn(CC(=O)Nc3ccc4c(c3)OCO4)c2N)c(OC)c1 | -9 | -7 | 41 | 1.3 | 3 | 3.3 | i | 1 | 16 | 3.3
O=C(NNC(=O)[C@@H]1CCCC[C@@H]1C(=O)O)Nc1ccccc1 | -13 | 7 | 1 | 1.7 | -11 | 1.0 | i | 6 | 0 | -2.8
CN(C(=O)CSc1nnc(-c2ccc(F)cc2)c2ccccc12)C1CCS(=O)(=O)C1 (centres undefined) | nt | 4 | 13 | 5.6 | 6 | 4.7 | i | -3 | 0 | 4.1
COc1cccc(S(=O)(=O)c2nc(C)c3c(n2)CCC3)c1 | -4 | 3 | 4 | -0.7 | 5 | 1.6 | i | 9 | -14 | -0.7
CSc1nc(Sc2cccc(Cl)c2)c2ccccc2n1 | -9 | -7 | 6 | nt | 6 | ? | nt | nt | nt | nt
Cc1cc(NC(=O)CCCn2cc([N+](=O)[O-])cn2)n(Cc2ccc(F)cc2)n1 | 2 | -4 | 27 | 1.6 | 14 | 2.6 | i | -23* | 6.4* | 9.7*
Cc1c(C(=O)Oc2cccc3cccnc23)oc2ccccc12 | nt | -3 | -1 | -6.1 | 0 | 1.5 | i | 6 | 7 | -1.7
CN(c1ccc(OCC(=O)NC2CCC(O)CC2)cc1)S(=O)(=O)c1ccc(Cl)cc1 (centres undefined) | -1 | -1 | nt | -3.0 | nt | nt | i | 5 | 2 | 8.4
CC1(C)Cc2ccccc2C(N/N=C/c2ccc(Cl)cc2)=N1 | 32 | -2 | 23 | nt | 14 | 10 | nt | nt | nt | nt
Cc1ccc(Cl)c(NC(=O)CN2CCNC(=O)C2)c1Cl | 4 | -4 | -1 | -1.7 | -17 | 0.8 | i | -4 | 11 | -2.4
CCCCNC(=S)Nc1ccc(Cl)cc1 | nt | 5 | -19 | -0.8 | -17 | -1.6 | i | -16 | -13 | 2.5
O=C(Cn1ccc(NC(=O)OCc2ccccc2)nc1=O)NCCc1c[nH]c2ccccc12 | 1 | -4 | nt | -1.1 | nt | nt | i | -2 | -3 | 1.6
CN(C)Cc1ccc(CNC(=O)c2ccc(Cl)c(S(=O)(=O)NC3CC3)c2)cc1 | 10 | -2 | nt | 0.2 | nt | nt | i | 5 | -11 | 2.5
Cc1ccc(N(C)C(=O)N2CCN(S(=O)(=O)c3ccc(C)c(C)c3)CC2)cc1 | -41 | 0 | 5 | nt | 1 | 5.0 | nt | nt | nt | nt
CCOC(=O)c1sc(N(Cc2ccccc2)C(=O)CCl)nc1C | nt | 0 | 0 | 0.2 | -4 | 11 | i | 0 | 6 | -0.7
COc1cc(OC)c(/C=N/N2CCN(c3ccccc3OC)CC2)c(OC)c1 | 34 | 0 | -4 | 7.3 | -2 | 6.7 | i | 9 | 3 | 1.1
CC(Sc1cccc[n+]1[O-])c1ccccc1 (centres undefined) | -11 | -7 | 3 | 1.0 | -6 | -2.3 | i | 11 | 5 | -2.4
CCOC(=O)N1CCN(CC(O)COc2ccc(C)cc2C(C)(C)C)CC1 (centres undefined) | -3 | 1 | ? | 0.7 | 17 | -4.7 | i | nt | nt | nt
O=C(Nc1ccccc1OC(=O)c1ccc(Cl)cc1)c1ccc(Cl)cc1 | -3 | -7 | 3 | 1.0 | -20 | 4.9 | i | nt | nt | nt
CCc1cc2c(=O)nc3n(c2s1)Cc1ccccc1/C3=C(/O)c1ccc(F)cc1 | 12 | 7 | 13 | nt | 2 | -110 | nt | nt | nt | nt
O=C(COc1cccnc1[N+](=O)[O-])NCc1ccccc1 | -16 | -4 | -4 | -1.8 | 8 | 1.6 | i | -5 | 8 | -1.0
CCNS(=O)(=O)c1ccc2c(c1)NCC2 | -10 | -2 | 11 | nt | 2 | -4.5 | nt | nt | nt | nt
C=CCNCc1ccccc1[N+](=O)[O-] | 2 | 0 | 0 | 0.4 | -8 | 1.9 | i | 6 | 5 | -1.0
O=C(Nc1ccccc1[N+](=O)[O-])c1cc(S(=O)(=O)N2CCOCC2)cs1 | -16 | -15 | -4 | 3.6 | -30 | 1.5 | i | -7 | 2 | 0.0
CCc1c(C)sc(NC(=O)C2CCCO2)c1C#N (centres undefined) | 34 | -7 | 14 | nt | 8 | 2.4 | nt | nt | nt | nt
N#Cc1ccc(C(=O)Nc2cc(S(=O)(=O)N3CCCC3)ccc2OCC(F)(F)F)cc1 | -5 | 4 | 3 | nt | -4 | -0.1 | nt | nt | nt | nt
O=C(COc1ccccc1)NCC(=O)NC1=NCCS1 | -2 | -3 | -1 | nt | -7 | 7.5 | nt | nt | nt | nt
COc1ccc(CCNC(=O)c2c(O)c3cccc4c3n(c2=O)CC4)cc1 | -6 | -7 | -20 | nt | 3 | 4.3 | nt | nt | nt | nt
Cc1cccc(NC(=S)NNC(=O)c2cc3c(s2)CCC(C)C3)c1C (centres undefined) | 3 | 0 | 110* | 1.7 | 17 | -2.5 | i | -59 | -75 | -19
CC(=O)c1cnc2nc(SCc3ccccc3)nn2c1C | 0 | 2 | -3 | -1.4 | 4 | 1.9 | nt | 0 | -8 | 2.3
N/C(Cn1cncn1)=N\OC(=O)c1ccc(Cl)cc1 | -7 | -1 | 31 | -2.3 | -15 | -5.3 | i | 19 | -2 | 1.0
O=C(COc1ccc(Br)cc1Cl)NC1CCCCC1 | 15 | 1 | 4 | -20 | 13 | -2.7 | i | nt | nt | nt
CN(C)C(=S)Nc1nc2ccccc2s1 | nt | nt | 17 | 9.3 | 57* | ? | i | -35 | -33 | -12
O=C(CSc1nc2ccc(Cl)cc2[nH]1)c1c[nH]c2ccccc12 | -11 | 0 | -3 | -10 | 33 | nt | i | -24 | -10 | 12
CCC1(CC)NC(=O)N(CC(=O)NC(=O)NCc2ccccc2)C1=O | 9 | -11 | 0 | -0.8 | -4 | -1.7 | i | 4 | 8 | -1.3
O=C(NCc1ccc2c(c1)OCO2)C1CCCN(S(=O)(=O)c2cccc3nonc23)C1 (centres undefined) | nt | -23 | 3 | nt | 2 | ? | nt | nt | nt | nt
O=C(NCc1ccco1)c1cc([N+](=O)[O-])ccc1Cl | 0 | -3 | 16 | 0.1 | 12 | -1.3 | i | 12 | 14 | -7.7
O=C(NCC(c1cccs1)N1CCOCC1)c1cc(S(=O)(=O)N2CCOCC2)ccc1F (centres undefined) | -9 | -4 | 8 | -0.2 | 8 | -0.5 | i | 10 | 8 | 1.7
CCCc1cc(=O)[nH]c2nnc(SCC(=O)N3CC(C)OC(C)C3)n12 (centres undefined) | 3 | -6 | 8 | -8.2 | -3 | 0.1 | i | 1 | 13 | -0.2
CCOC(=O)c1[nH]c2ccc(F)cc2c1N=C(C)N(CC)CC | 80* | 7 | 3 | nt | -2 | -4.3 | nt | nt | nt | nt
CCOc1ccccc1N1CCN(CC(=O)Nc2nnc(CC)s2)CC1 | 38 | -2 | 3 | nt | 9 | 5.5 | nt | nt | nt | nt
CC(=O)Nc1ccc(S(=O)(=O)N2CCN(CC3CC4C=CC3C4)CC2)cc1 (centres undefined) | 1 | -4 | -13 | 1.4 | -6 | 2.6 | i | -22* | -17* | -1.1*
COc1cc(O)c(C(CCN2CCCCC2)c2ccc(N(C)C)cc2)c(OC)c1 (centres undefined) | 98* | 0 | -9 | 33* | -14 | 1.8 | i | 3 | 3 | 0.5
COC(=O)C1=C(C)NC(=O)CC1c1cc(Br)ccc1F (centres undefined) | -4 | -1 | -9 | nt | -1 | -0.9 | nt | nt | nt | nt
Cc1ccc(Cl)cc1NC(=O)c1cc(S(=O)(=O)N2CCOCC2)cn1C | -15 | -5 | -3 | 4.5 | -11 | 2.2 | i | -10 | -21 | 1.3
COc1ccc(S(=O)(=O)N(Cc2nc3ccccc3c(=O)[nH]2)C2CCCC2)cc1 | -13 | 2 | 15 | nt | -5 | 2.4 | nt | nt | nt | nt
CC(C)Sc1oc(-c2ccco2)nc1S(=O)(=O)c1ccccc1 | -4 | -2 | 1 | -5.7 | 10 | -3.2 | i | 0 | -2 | 7.6
CCOc1cc(/C=N/Nc2ccc(C(=O)O)cc2)ccc1OC(=O)c1ccccc1C | 39 | 6 | 20 | 0.4 | -7 | -1.2 | i | -3 | 8 | 4.4
COc1ccc(CN(C)Cc2nc(Cc3cccc(F)c3)no2)c2cccnc12 | -48 | 62 | 32 | 1.4 | 37 | 10 | i | -7 | 4 | 0.7
O=C(CCn1c(=O)oc2ccccc21)Nc1cccc(Br)c1 | -2 | -4 | 0 | -1.8 | 10 | 2.1 | i | 2 | 11 | 1.9
Cn1c(N)c(-c2ccccc2)c2ccc([N+](=O)[O-])cc2c1=O | 49 | nt | 34 | 4.1 | 11 | -35 | i | 11 | 6 | 1.5
Cc1ccc(C)c(NC(=O)COC(=O)c2ccc3c(c2)OCCO3)c1 | -1 | -1 | nt | 2.7 | nt | nt | i | 4 | 10 | -3.2
O=C(CSc1nnc(CNc2ccccc2)o1)N1CCN(C(=O)c2ccco2)CC1 | -1 | -5 | -15 | -5.7 | -12 | -1.7 | i | 6 | -2 | 3.8
O=C(Nc1cnc2sc3c(n2c1=O)CCCC3)c1ccc(F)cc1 | -1 | -3 | -27 | nt | 9 | -0.5 | nt | nt | nt | nt
COc1ccc(NS(=O)(=O)c2cccc(C(=O)N3CCN(Cc4ccc5c(c4)OCO5)CC3)c2)cc1 | 0 | -6 | 3 | 2.3 | 18 | 3.3 | i | -5 | -22 | 3.4
CCN(c1ccccc1)S(=O)(=O)c1csc(C(N)=O)c1 | -2 | -3 | 5 | -0.7 | -12 | -5.5 | i | 9 | 8 | 1.4
CCN(C(=O)/C=C/c1ccc2c(c1)OCO2)c1ccccc1 | -3 | nt | 6 | nt | 5 | -1.8 | nt | nt | nt | nt
CCC(C(=O)NC1CCCC1)n1c(SCc2cccc(C)c2)nc2ccncc21 (centres undefined) | -2 | 6 | -2 | -2.3 | -6 | 1.3 | i | -5 | -54 | 23
Cc1cc(C)n(-c2nnc(C)n2/N=C/c2cc(Br)ccc2OCc2ccccc2)n1 | -3 | 0 | 26 | nt | 12 | 3.8 | nt | nt | nt | nt

Source: PubChem
